Bioassay records from PubChem.
D2 potentiator – potentiates the human D2 dopamine receptor allosterically. DiscoveRx D2 beta-arrestin cells, luminescence, 90 min; 100% = 57 uM dopamine signal. potentiation, % (no concentration beside the values). actives 0.23% (n = 360,000). AID 624464; active = potentiation of 50% or more; inconclusive = 30% to 50%; inactive = 30% or less;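 note: compound concentration not given in the record; tested on top of an EC20 dose of dopamine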
Target sequence (P14416 whole entry, looked up): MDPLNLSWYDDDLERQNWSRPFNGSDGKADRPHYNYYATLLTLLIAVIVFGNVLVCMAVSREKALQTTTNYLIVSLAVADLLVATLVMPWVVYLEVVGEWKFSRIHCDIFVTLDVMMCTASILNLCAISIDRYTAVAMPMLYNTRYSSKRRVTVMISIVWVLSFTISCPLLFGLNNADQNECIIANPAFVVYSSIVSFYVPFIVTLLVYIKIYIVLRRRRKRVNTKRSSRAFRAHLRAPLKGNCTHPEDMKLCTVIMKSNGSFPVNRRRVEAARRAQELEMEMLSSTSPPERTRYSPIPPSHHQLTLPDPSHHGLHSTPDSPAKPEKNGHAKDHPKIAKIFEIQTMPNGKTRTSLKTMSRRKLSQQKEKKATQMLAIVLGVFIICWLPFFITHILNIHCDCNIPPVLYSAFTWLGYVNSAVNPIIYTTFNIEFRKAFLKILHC
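D2 cells co-treated with compound plus 50 nM dopamine (EC20) for 90 min at 37 deg C to detect potentiation. Beta-arrestin recruitment was read as enzyme-fragment luminescence after 1 h at ambient temperature. Full response was set by 57 uM dopamine.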
Six1-Eya2 inh – Six1/Eya2 interaction inhibition | activity change, % (no concentration beside the values) | Q15475+O00167 | AlphaScreen GST-Six1/His-Eya2 binding, biochemical; active compounds read low; control for the full effect not named in the record | actives 0.56% (n = 360,000) | AID 651725; in the data active = activity change below about -65%; inconclusive = about -30% to -65%; inactive = above about -30%; note: % is set by controls: 0 for no effect and ±100 for the full control effect
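Six1/Eya2 binding was read as AlphaScreen signal after compounds were pinned into GST-Six1 plus His-tagged Eya2 (5X stock 250/500 nM) in pH 8.0 Tris/NaCl/TCEP buffer, beads added, then incubated 1 h, 37 C, dark.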
CtBP-E1A inh – CtBP/E1A binding inhibition; actives 0.49% (n = 340,000); activity change, % (concentration not given with the values); AID 651724; AlphaScreen GST-E1A/His-CtBP binding, 1536-well; active compounds read low; control for the full effect not named in the record; in the data active means activity change below about -65%; inconclusive means about -30% to -65%; inactive means above about -30%; note: % is set by controls: 0 for no effect and ±100 for the full control effect
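AlphaScreen with 125 nM GST-E1A and 125 nM His-CtBP (5X stocks) in Tris pH 8.0, 300 mM NaCl, BSA, Tween 20, TCEP. Compounds preincubated 2 h at 37 deg C, then glutathione donor/nickel acceptor beads added for 1 h at 37 deg C in dark.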
gsp antagonist – gsp mutant antagonism. gsp-mutant cells, cAMP HTRF, 30 min; control for the full effect not named in the record. actives 0.4% (n = 340,000). Potency, µM (series often up to 76.9 µM), for inactives: at the top dose activity change, negative = inhibition, usual class: inhibitors. AID 624288; active = falling curve of any shape with a large fitted effect; inconclusive = falling curve, mostly with a smaller effect; inactive = flat or rising curve; cell line not stated here;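 note: intracellular cAMP measured with PDE inhibitor Ro 20-1724 present during compound exposure; potency is the fitted concentration of half-maximal effect; % is set by controls: 0 for no effect and ±100 for the full control effect; nearly all actives have a fitted effect of over 65% in size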
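HTRF cAMP read-out (cAMP-d2 plus anti-cAMP antibody-K in lysis buffer, 30 min RT). Before lysis, cells are exposed to compounds with […] for 30 min at 37C in DPBS containing Ca/Mg, BSA and Tween 20.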
gsp agonist – agonists of gsp mutant (McCune-Albright syndrome) | gsp mutant cells, cAMP HTRF, 30 min; control for the full effect not named in the record | Potency, µM (series often up to 76.9 µM), for inactives: at the highest dose activation (cAMP increase), hits mostly activators | actives 0.13% (n = 340,000); active = well fitted activation curve with a large enough effect; inconclusive = small, poorly fitted or top-dose-only effect, or another doubt; inactive = no such curve, though single readings can be large or run the other way; cell line not stated here;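 note: phosphodiesterase inhibitor Ro 20-1724 added with compounds to block cAMP breakdown; potency is the fitted concentration of half-maximal effect; nearly all actives have a fitted effect of over 60% in size; about a fifth of the inactives were tested at one dose only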
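Cells in DMEM/10% FBS with G418 were pretreated with compounds in DMSO plus […] (300 uM stock) for 30 min at 37C. cAMP was measured by HTRF (cAMP-d2 plus anti-cAMP antibody-K) after 30 min at room temperature.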
D2 ag – activates the human D2 dopamine receptor | P14416 | DiscoveRx PathHunter D2 beta-arrestin, luminescence, 90 min; 100% = 57 uM dopamine signal | activation, % (no concentration beside the values) | actives 0.084% (n = 360,000); in the data active = activation above about 40%; inconclusive = about 15% to 40%; inactive = below about 15%; note: compound concentration not given in the record; the text of the record calls up to 30% inactive
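DiscoveRx PathHunter D2 beta-arrestin cells (2,100/well) attached overnight, then compound-stimulated 90 min at 37 C in HBSS/10 mM HEPES/0.1% Tween-20 buffer; beta-galactosidase complementation read by luminescence after 1 h at ambient temperature. Dopamine 57 uM final (EC100) as control.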
* marks the source's active call; other numbers are inactive results; ? = inconclusive; . = not tested or not shown; [ ] = another dose, or the depositor's remark. An unsorted share of the library. About 1.4% of those tested had a hit in this group.

Screens by letter – A = D2 potentiator; B = Six1-Eya2 inh; C = CtBP-E1A inh; D = gsp antagonist; E = gsp agonist; F = D2 ag
1	CN1CC(=O)N(CC(=O)Nc2cccc(S(=O)(=O)N3CCOCC3)c2)C1=O
  A = -5; B = 7; C = 2; D = 3%; E = 19%[15.4 µM]; F = -2.3

2	COc1ccc(NC(=O)c2cn(-c3ccccc3)nc2-c2ccncc2)cc1
  A = -9; B = -6; C = -5; D = -27%; E = -6%; F = 5.6

3	COc1ccccc1CNC(=O)COC(=O)c1cc(C)nc2ccccc12
  A = 5; B = -1; C = 1; D = -4%; E = -1%; F = 0.4

4	O=C1c2cccc3c([N+](=O)[O-])ccc(c23)C(=O)N1CC1CCCO1 (configuration not stated)
  A = 6; B = -17; C = -12; D = -9%; E = 12%; F = ?

5	COc1ccc(/C=N/n2cnc3c([nH]c4ccc(F)cc43)c2=O)cc1CN1CCCC1
  A = -7; B = -11; C = -14; D = 9%; E = -19%; F = -2.7

6	O=S(=O)(c1ccccc1)N1CCC(N2CCCCCC2)CC1
  A = -9; B = 1; C = 1; D = 3%; E = -60%[inhibitor]; F = -2.4

7	COC(=O)CCCC(=O)N1CCOCCN(C(=O)CCCC(=O)OC)CCOCC1
  A = -15; B = -12; C = -10; D = ?; E = 21%; F = -2.0

8	CC(C)OP(=O)(OC(C)C)C(Nc1ccccc1)c1cccc([N+](=O)[O-])c1 (configuration not stated)
  A = -10; B = 8; C = 2; D = -5%; E = 29%; F = -0.3

9	CC(C)CC(C(=O)Nc1cccc(O)c1)N1C(=O)c2ccccc2C1=O (configuration not stated)
  A = 0; B = -6; C = -6; D = 3%; E = 11%; F = -4.4

10	C[C@@H]1CN([C@H](C)CO)C(=O)CCCn2nncc2CO[C@@H]1CN(C)C(=O)C1CCCCC1
  A = -2; B = 6; C = 1; D = .; E = -3%; F = -9.1

Reformatted bar-delimited: entries from further up.
# | Structure | D2 potentiator | Six1-Eya2 inh | CtBP-E1A inh | gsp antagonist | gsp agonist | D2 ag
4 | O=C1c2cccc3c([N+](=O)[O-])ccc(c23)C(=O)N1CC1CCCO1 (configuration not stated) | 6 | -17 | -12 | -9% | 12% | ?
5 | COc1ccc(/C=N/n2cnc3c([nH]c4ccc(F)cc43)c2=O)cc1CN1CCCC1 | -7 | -11 | -14 | 9% | -19% | -2.7

The listing continues:
Screens by letter – A = D2 potentiator; B = Six1-Eya2 inh; C = CtBP-E1A inh; D = gsp antagonist; E = gsp agonist; F = D2 ag
11	COCCn1c(N)c(C(=O)NCc2cccs2)c2nc3ccccc3nc21
  A = -8; B = -30; C = ?; D = -1%; E = 9%; F = -2.6

12	CCCCNC(=S)N1CCN(C)CC1
  A = -5; B = 10; C = 3; D = 9%; E = -13%; F = -1.3

13	CC(=O)N1CCc2cc(Br)cc(S(=O)(=O)NCc3ccccn3)c21
  A = -14; B = 0; C = -1; D = -17%; E = ?; F = 0.9

14	COCCNC(=S)Nc1ccccc1Cc1ccccc1
  A = -21; B = 6; C = 3; D = 7%; E = 4%; F = 3.2

15	CCC(=O)N1CCc2cc(S(=O)(=O)Nc3ccccc3C)ccc21
  A = -5; B = -2; C = 5; D = -10%; E = -12%; F = 5.5

16	O=C(Cn1ncn2cccc2c1=O)N1CCCCC1
  A = -21; B = 5; C = 3; D = 1%; E = 1%; F = -0.6

17	O=C(Nc1ccc2c(c1)OCCO2)C1CCCN1C(=O)Nc1ccccc1 (configuration not stated)
  A = -7; B = -2; C = 6; D = 3%; E = -8%; F = -1.8

18	O=C(COC(=O)c1oc2ccccc2c1COc1ccccc1)NCCN1C(=O)CSC1=O
  A = -16; B = -4; C = -18; D = -16%; E = 0%; F = -2.3

19	O=S(=O)(NCc1ccccc1)c1ccc(S(=O)(=O)N2CCCC2)cc1
  A = -3; B = 0; C = .; D = 5%; E = -46%[15.4 µM]; F = 1.6

20	COc1cc(/C=N/NC(N)=O)ccc1OC(=O)c1ccco1
  A = 4; B = 6; C = 7; D = -2%; E = 49%; F = 3.0

From no. 19 to 20, copied from above:
Screens by letter – A = D2 potentiator; B = Six1-Eya2 inh; C = CtBP-E1A inh; D = gsp antagonist; E = gsp agonist; F = D2 ag
19	O=S(=O)(NCc1ccccc1)c1ccc(S(=O)(=O)N2CCCC2)cc1
  A = -3; B = 0; C = .; D = 5%; E = -46%[15.4 µM]; F = 1.6

20	COc1cc(/C=N/NC(N)=O)ccc1OC(=O)c1ccco1
  A = 4; B = 6; C = 7; D = -2%; E = 49%; F = 3.0

(more compounds)
Screens by letter – A = D2 potentiator; B = Six1-Eya2 inh; C = CtBP-E1A inh; D = gsp antagonist; E = gsp agonist; F = D2 ag
21	COC(=O)CCNC(=O)c1ccc2nc(Cc3ccc(OC)cc3)oc2c1
  A = -8; B = 8; C = 9; D = -7%; E = -22%[15.4 µM]; F = -1.8

22	Cn1nc(C(=O)OCC(=O)NC2CCS(=O)(=O)C2)c2ccccc2c1=O (configuration not stated)
  A = -2; B = -3; C = 3; D = -2%; E = 1%[15.4 µM]; F = -4.5

23	COc1cc(/C=C/C(=O)Nc2ccc(OC)c(S(=O)(=O)N3CCOCC3)c2)ccc1OC(F)F
  A = 8; B = -26; C = 0; D = -12%; E = -40%[inhibitor]; F = 4.0

24	CCOC(=O)c1[nH]c(C)c(C(=O)NCCC2=CCCCC2)c1C
  A = 7; B = -11; C = -1; D = -3%; E = -3%; F = -3.0

25	N#CC1=C(N)Oc2cc3ccccc3cc2C1c1cccnc1 (configuration not stated)
  A = 14; B = -3; C = -5; D = ?; E = 10%; F = -0.6

26	CCOc1ccc(S(=O)(=O)N2CCCC(C(=O)N3CCOCC3)C2)cc1Cl (configuration not stated)
  A = 2; B = -2; C = 5; D = -6%; E = 2%; F = 4.7

27	Cc1nn(CC2CC2)c(=O)n1-c1ccc(Cl)cc1
  A = -2; B = 3; C = 2; D = 4%; E = 7%[15.4 µM]; F = 5.7

28	CC1=C(C(=O)Nc2ccccn2)C(c2ccccc2Cl)NC(=S)N1 (configuration not stated)
  A = -1; B = -2; C = -6; D = 0%; E = -24%; F = -2.8

29	CC1CC(C)CN(CCCNC(=O)CCC(=O)N2CCOc3ccccc32)C1 (configuration not stated)
  A = -12; B = 5; C = -1; D = 0%; E = -18%; F = -4.0

30	O=C(c1ccc(NS(=O)(=O)c2cccs2)cc1)N1CCCCC1
  A = -6; B = 14; C = 1; D = 3%; E = -1%; F = -0.2

Single records (already shown):
Cn1nc(C(=O)OCC(=O)NC2CCS(=O)(=O)C2)c2ccccc2c1=O (configuration not stated) is entered as D2 potentiator: -2; Six1-Eya2 inh: -3; CtBP-E1A inh: 3; gsp antagonist: -2%; gsp agonist: 1%[15.4 µM]; D2 ag: -4.5
O=C1c2cccc3c([N+](=O)[O-])ccc(c23)C(=O)N1CC1CCCO1 (configuration not stated) is entered as D2 potentiator: 6; Six1-Eya2 inh: -17; CtBP-E1A inh: -12; gsp antagonist: -9%; gsp agonist: 12%; D2 ag: ?

Further entries
Screens by letter – A = D2 potentiator; B = Six1-Eya2 inh; C = CtBP-E1A inh; D = gsp antagonist; E = gsp agonist; F = D2 ag
31	CCn1nc(C)c(NC(=O)c2cc(Br)ccc2Cl)c1C
  A = -7; B = 2; C = -1; D = 3%; E = 3%; F = -1.9

32	COc1cc(NC(=O)c2cc(S(=O)(=O)N3CCc4ccccc43)cn2C)cc(OC)c1OC
  A = -4; B = -5; C = -8; D = -3%; E = ?; F = -1.1

33	Cc1ccc(C(=O)NCC2CCCO2)o1 (configuration not stated)
  A = -9; B = 4; C = 1; D = 5%; E = -1%; F = -3.9

34	O=C(CN1CCN(c2ccccc2)CC1)Nc1ccc(OCc2ccccc2)cc1
  A = -19; B = -19; C = 5; D = -10%; E = 8%; F = 12

35	CC(C)(C)C(=O)CSc1ncnc2sc3c(c12)CCC3
  A = -13; B = 16; C = .; D = -14%; E = 14%; F = 4.4

Among those listed so far, these have fluorine:
Screens by letter – A = D2 potentiator; B = Six1-Eya2 inh; C = CtBP-E1A inh; D = gsp antagonist; E = gsp agonist; F = D2 ag
5	COc1ccc(/C=N/n2cnc3c([nH]c4ccc(F)cc43)c2=O)cc1CN1CCCC1
  A = -7; B = -11; C = -14; D = 9%; E = -19%; F = -2.7

23	COc1cc(/C=C/C(=O)Nc2ccc(OC)c(S(=O)(=O)N3CCOCC3)c2)ccc1OC(F)F
  A = 8; B = -26; C = 0; D = -12%; E = -40%[inhibitor]; F = 4.0
